Bioassay records from PubChem BioAssay.
D2 agonist = agonists of human D2 dopamine receptor (beta-arrestin); activation, % (test concentration not listed); DiscoveRx PathHunter D2 beta-arrestin, luminescence, 90 min; 100% = 57 uM dopamine signal; 360,000 tested, 0.084% active; in the data active = activation above about 40%; inconclusive = about 15% to 40%; inactive = below about 15%; also: compound concentration not given in the record; the text of the record calls up to 30% inactive
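Agonist mode: compounds alone added to overnight-plated D2 PathHunter cells for 90 min at 37 C, with 57 uM final dopamine (EC100) defining full response. Beta-arrestin recruitment detected by chemiluminescent reagent, read after 1 h at ambient temperature.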
PINK1 modulator = modulators of PINK1 expression; PINK1 immunofluorescence, high-content cytometry, 24 h; Potency, µM (top dose mostly 76.6 µM), without a hit: at the top dose activation (PINK1 increase), most hits filed as activators; 410,000 tested, 0.2% active; active = well fitted activation curve with a large enough effect; inconclusive = small, poorly fitted or top-dose-only effect; inactive = flat fitted curve, though single readings scatter; cell line not stated here;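 also: potency is read from the fitted curve at half-maximal effect; % of control where 0% means no effect; nearly all actives have a fitted effect of over 65% in size; a mitochondrial uncoupler was the plate control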
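Stable cell line treated 24 h with compounds at 5 concentrations (CCCP controls), then fixed and immunostained for PINK1 plus nuclear and cell stains; PINK1 immunofluorescence quantified by laser-scanning microplate cytometry.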
Six1-Eya2 inh = blocks human Six1 binding to Eya2 | Q15475+O00167 | AlphaScreen GST-Six1/His-Eya2 binding, biochemical; hits give low values; control for the full effect not named in the record | activity change, % (no concentration beside the values) | 360,000 tested, 0.56% active; in the data active = activity change below about -65%; inconclusive = about -30% to -65%; inactive = above about -30%; also: % is scaled to controls: 0 for no effect and ±100 for the full control effect; compound concentration not given in the record
Target sequence (O00167 whole entry, looked up): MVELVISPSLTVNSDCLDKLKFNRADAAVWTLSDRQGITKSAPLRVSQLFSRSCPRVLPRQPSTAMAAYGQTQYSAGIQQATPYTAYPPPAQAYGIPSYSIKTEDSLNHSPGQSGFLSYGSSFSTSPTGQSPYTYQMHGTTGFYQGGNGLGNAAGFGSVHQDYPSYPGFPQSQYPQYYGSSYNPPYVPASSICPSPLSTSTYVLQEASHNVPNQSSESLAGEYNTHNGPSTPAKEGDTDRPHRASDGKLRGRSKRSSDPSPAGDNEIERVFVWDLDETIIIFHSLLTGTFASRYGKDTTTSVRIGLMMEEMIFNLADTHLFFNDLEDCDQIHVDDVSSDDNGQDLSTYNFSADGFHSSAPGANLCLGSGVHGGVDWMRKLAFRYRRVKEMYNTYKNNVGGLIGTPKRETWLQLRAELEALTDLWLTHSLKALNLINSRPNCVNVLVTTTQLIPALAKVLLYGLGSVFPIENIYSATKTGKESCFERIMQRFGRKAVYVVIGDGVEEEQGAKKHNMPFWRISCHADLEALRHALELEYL
Target sequence (Q15475 whole entry, looked up): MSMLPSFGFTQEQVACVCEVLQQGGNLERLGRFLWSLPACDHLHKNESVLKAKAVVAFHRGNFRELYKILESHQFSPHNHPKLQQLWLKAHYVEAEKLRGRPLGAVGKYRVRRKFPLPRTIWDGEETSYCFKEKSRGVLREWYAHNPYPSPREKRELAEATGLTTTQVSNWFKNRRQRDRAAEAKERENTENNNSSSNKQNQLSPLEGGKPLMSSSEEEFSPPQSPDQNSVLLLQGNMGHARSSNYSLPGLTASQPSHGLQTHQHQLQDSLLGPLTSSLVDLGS
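Six1/Eya2 binding was read as AlphaScreen signal after compounds were pinned into GST-Six1 plus His-tagged Eya2 (5X stock 250/500 nM) in pH 8.0 Tris/NaCl/TCEP buffer, beads added, then incubated 1 h, 37 C, dark.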
CtBP-E1A blk = inhibitors of CtBP/E1A interaction | activity change, % (no concentration beside the values) | 340,000 tested, 0.49% active | AlphaScreen GST-E1A/His-CtBP binding, 1536-well; hits give low values; control for the full effect not named in the record; in the data active means activity change below about -65%; inconclusive means about -30% to -65%; inactive means above about -30%; also: % is scaled to controls: 0 for no effect and ±100 for the full control effect; compound concentration not given in the record
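In 5 uL wells, 23 nL compound meets equimolar GST-E1A and His-CtBP (5X stock 125 nM each) for 2 h, 37 °C. Beads (5X, 50 ug/mL) then 1 h, 37 °C, dark.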
TRPML1 agonist = activates the human TRPML1 channel; 410,000 tested, 0.12% active; TRPML1-expressing cells, Ca2+ dye fluorescence, FDSS; host cell line not named in the record; reference of the full effect not given here; activation, % (test concentration not listed); AID 624414; in the data active = activation above about 50%; inconclusive = about 30% to 50%; inactive = below about 30%; also: 0% is about no effect; the text of the record puts the active cut at 80%
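Tetracycline-induced TRPML1-DL cells are seeded and incubated overnight before loading with a no-wash Ca2+ dye and quencher. Agonist activity is taken from the 110 s fluorescence read following compound pin-transfer on an FDSS, before EC80 54-4 challenge.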
D2 PAM = positive allosteric modulators of human D2 dopamine receptor; P14416; DiscoveRx D2 beta-arrestin cells, luminescence, 90 min; 100% = 57 uM dopamine signal; potentiation, % (test concentration not listed); 360,000 tested, 0.23% active; AID 624464; active = potentiation of 50% or more; inconclusive = 30% to 50%; inactive = 30% or less;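 also: compound concentration not given in the record; tested on top of an EC20 dose of dopamine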
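D2 cells co-treated with compound plus 50 nM dopamine (EC20) for 90 min at 37 deg C to detect potentiation. Beta-arrestin recruitment was read as enzyme-fragment luminescence after 1 h at ambient temperature. Full response was set by 57 uM dopamine.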
An asterisk follows results filed as active; ? = inconclusive; . = no result given; & = joins results of further samples; [ ] = dose if it differs, or a comment.

SMILES | D2 agonist | PINK1 modulator | Six1-Eya2 inh | CtBP-E1A blk | TRPML1 agonist | D2 PAM
c1ccc(-c2c[n+]3c(n2-c2ccccc2)SCC3)cc1 | -6.4 | 0.8% | -3 | -13 | -0.3 | -8
CCCn1c2ccccc2c2nnc(SCC(=O)Nc3cc(C)on3)nc21 | -2.4 | 21% | 1 | -3 | 1.5 | -25
Cc1ccc(S/C=C\C(=O)c2ccccc2)cc1 | -4.3 | 13µM* | -19 | -7 | 0.1 | -8
COc1cc(NC(=O)Cn2cnc3sc(C)c(S(=O)(=O)N4CCOCC4)c3c2=O)cc(OC)c1OC | 2.3 | 3.4% | -15 | -15 | -0.1 | -5
COc1ccc(C(NC(C)=O)c2cc(Cl)c3cccnc3c2O)cc1 (configuration not stated) | -16 | 3.5% | -83* | -93* | 0.8 | -8
CCn1c(COc2ccccc2)nnc1SCC(=O)Nc1cc(OC)ccc1OC | -1.5 | -2.6% | 4 | 18 | 1.4 | -3
CN(C(=O)COC(=O)COc1ccc(Cl)cc1)C1CCCCC1 | -4.5 | -0.5% | -10 | 7 | -0.6 | -5
CCc1ccccc1OCC(=O)Nc1cccc(S(=O)(=O)NC2=NCCCCC2)c1 | -3.1 | -0.1% | -9 | -6 | 1.1 | -6
CCCn1c(SCC(=O)Nc2nnc(-c3ccccc3)s2)nnc1-c1ccccn1 | -0.6 | -0.4% | -4 | -9 | 3.8 | 4
COc1cc(CNCc2ccco2)cc(OC)c1O | 0.1 | -1.5% | -1 | 0 | 0.6 | -2
CCc1cc(Br)ccc1NC(=S)NCCc1ccccc1 | -7.9 | ? | -12 | -4 | 1.4 | -20
Cc1nc2nc(C)c(CCC(=O)NCCC3=CCCCC3)c(C)n2n1 | -2.0 | 0.5%[38.3 µM] | 2 | 0 | -0.1 | -14
CC(C)Cn1c(-c2csc3ccccc23)n[nH]c1=S | 6.4 | 1.2% | 9 | 7 | 2.5 | 4
O=C(COC(=O)C1CCN(S(=O)(=O)c2cc([N+](=O)[O-])ccc2Cl)CC1)Nc1ncc(Cl)cc1Cl | 2.7 | -1.3% | -21 | ? | -0.1 | 70*
COCC(C)n1c(C)cc(C(=O)CN2C(=O)NC3(CCCCC3C)C2=O)c1C (configuration not stated) | -1.1 | 1.5% | 0 | 0 | -0.4 | 4
N#Cc1c2n(c(=S)n(-c3ccccn3)c1=O)CCCCC2 | 0.0 | -2.0% | -3 | -19 | 2.3 | -25
O=C1NC[C@H](CCCCN2C[C@H](Cc3ccc(O)cc3)N(CCc3ccc(O)cc3)C(=O)C2=O)N(Cc2ccccc2)C1=O | . | 0.0% | 2 | -18 | 0.3 | .
CC(=O)c1cc(-c2ccc(F)cc2)n(CCC(=O)Nc2cc(C)[nH]n2)c1C | -0.1 | -1.9% | -6 | -16 | -0.5 | 5
N#CC1=C(N)NC(SCC(=O)Nc2ccccc2)=C(C#N)C12CCCCC2 | -2.5 | -0.4% | 17 | 0 | -0.7 | -19
CC(=O)C(Cc1ccc(Cl)nc1)(Cc1ccc(Cl)nc1)C(C)=O | -0.1 | -0.3% | 3 | 4 | -0.2 | -3
COc1ccc(-c2cc(C(=O)N/N=C/c3cccnc3)c3ccccc3n2)cc1 | 0.2 | 14% | -3 | -4 | 0.0 | 2
COc1ccc(/C=C/C(=O)NCC(=O)N/N=C/c2cccs2)cc1 | 4.5 | 11% | 1 | -3 | -0.9 | -21
Cc1c(C)c2ccc(OCC(=O)N3CC[C@@]4(O)CCCC[C@H]4C3)c(C)c2oc1=O | -5.2 | 0.2% | 2 | -6 | . | -28
O=C1NCCCc2c1oc1cc(Br)c(O)c(Br)c21 | -4.6 | -7.5%[38.3 µM] | -8 | 213 | -0.7 | -10
CC(=O)Nc1ccc(C(=O)NN2C(=O)c3ccccc3C2=O)cc1 | -3.7 | 1.9% | -4 | 9 | -0.3 | -5

Reprinted at random: 2 records from the list
SMILES | D2 agonist | PINK1 modulator | Six1-Eya2 inh | CtBP-E1A blk | TRPML1 agonist | D2 PAM
O=C(COC(=O)C1CCN(S(=O)(=O)c2cc([N+](=O)[O-])ccc2Cl)CC1)Nc1ncc(Cl)cc1Cl | 2.7 | -1.3% | -21 | ? | -0.1 | 70*
CC(=O)C(Cc1ccc(Cl)nc1)(Cc1ccc(Cl)nc1)C(C)=O | -0.1 | -0.3% | 3 | 4 | -0.2 | -3

Carrying on.
SMILES | D2 agonist | PINK1 modulator | Six1-Eya2 inh | CtBP-E1A blk | TRPML1 agonist | D2 PAM
Nc1c2c(nc3ccccc13)CCC2 | -3.4 | 3.3% | -24 | 2 | -0.3 | 4
Cc1noc(C(=O)N2CC3(C)CC2CC(C)(C)C3)c1Cl (configuration not stated) | -3.0 | 5.1% | 7 | 1 | -0.4 | -4
CCOc1ccc(OCC)c(NC(=O)C2CCCN2S(=O)(=O)c2cccc3cccnc23)c1 (configuration not stated) | -1.7 | 0.4% | -11 | ? | 1.9 | -15
Cc1nc2cc(-c3ccccc3)sc2c(=O)n1N | -0.1 | -1.9% | 2 | 0 | 0.2 | -10
CC(=O)c1cccc(NC(=O)NN2CCN(C)CC2)c1 | -1.3 | -0.3% | 1 | 3 | 0.5 | -2
Cc1ccc(NC(=O)CNc2cccc(S(=O)(=O)N3CCCC3)c2)cc1F | 0.6 | 0.4% | -11 | 4 | 1.8 | -20
CN1C(=O)C(C)(C)c2cc(S(=O)(=O)NCC3CCC(C(=O)NC4CCCCC4)CC3)ccc21 (configuration not stated) | 4.7 | -1.3% | 0 | 4 | -0.5 | -5
O=C(NC(=S)Nc1ccc(-c2ccc(CO)o2)cc1)c1cccs1 | 2.3 | 0.7% | -14 | -6 | 0.7 | 0
COC(=O)c1ccc2nc(C3CCCCC3)c(Cc3ccccc3C(F)(F)F)n2c1 | -4.4 | 1.5% | -6 | 2 | -0.2 | -3
COC(=O)[C@H](Cc1ccccc1)[C@@H](C)OS(N)(=O)=O | -3.0 | 0.5% | 7 | 6 | -0.7 | -8
NC(=O)c1ccc(NC(=O)COC(=O)C2CCN(S(=O)(=O)c3cccs3)CC2)cc1 | -2.1 | 1.5% | -6 | . | -0.6 | 1
COCCNC(=O)c1ccc(-c2csc(C)n2)cc1 | -6.7 | 1.5% | -2 | -1 | -0.8 | -3
CCc1nnc(NS(=O)(=O)c2ccc(NC(=O)/C=C/c3ccccc3Cl)cc2)s1 | -6.4 | -1.6% | -5 | -9 | 0.3 | -6
CCC(Oc1ccccc1)C(=O)N1CCN(c2ccccn2)CC1 (configuration not stated) | -2.2 | 1.0% | 2 | -3 | 1.1 | 4
COc1ccc(C(=O)NC2CCN(C(=S)Nc3cc(C)cc(C)c3)CC2)cc1 | -5.1 | -1.1% | 7 | 11 | 3.4 | -2
COC(=O)c1ccccc1NC(=O)n1cc(C)cn1 | -1.2 | 1.0% | -1 | -1 | 0.4 | 1
COc1ccc(-c2oc3ccccc3c(=O)c2OC(=O)c2ccc(C)cc2)cc1 | 0.6 | -3.3% | 16 | 2 | 1.1 | 11
CCOCC(=O)Nc1cc(-c2cn3cccnc3n2)ccc1C | -0.1 | -1.5%[38.3 µM] | 5 | 2 | -0.1 | 9
C[N+]1=C(/C=C/Nc2ccccc2Cl)C(C)(C)c2ccccc21 | -5.3 | ? | -5 | 9 | 4.0 | -16
O=C(O)c1cn(-c2ccccc2)c(=O)c2ccccc12 | -0.8 | 1.5% | 4 | -1 | 0.4 | 2
COc1cc(NC(=O)C/C(C)=N/NC(=O)C2CCCCC2)c(OC)cc1Cl | 0.9 | 3.2% | ? | -13 | -0.4 | -7
COc1ccc(-c2nc3ccccc3s2)cc1O | -1.2 | -1.6% | -2 | -5 | -1.0 | -2
Cc1ccc(NC(=O)c2ccc(CSc3nnc(C)s3)cc2)cc1 | -2.1 | -0.1% | 18 | -1 | -0.3 | -17
CC(=O)CCn1cnc([N+](=O)[O-])n1 | 3.0 | 1.7% | 7 | 6 | 1.0 | -1
O=C1NC(Cc2c[nH]c3ccccc23)C(=O)N1Cc1ccc(CN2C(=O)NC(Cc3c[nH]c4ccccc34)C2=O)cc1 (configuration not stated) | -0.9 | 0.0% | -17 | -17 | 0.0 | 2

Of the compounds above, 3 have an NH in an aromatic ring.
SMILES | D2 agonist | PINK1 modulator | Six1-Eya2 inh | CtBP-E1A blk | TRPML1 agonist | D2 PAM
CC(C)Cn1c(-c2csc3ccccc23)n[nH]c1=S | 6.4 | 1.2% | 9 | 7 | 2.5 | 4
CC(=O)c1cc(-c2ccc(F)cc2)n(CCC(=O)Nc2cc(C)[nH]n2)c1C | -0.1 | -1.9% | -6 | -16 | -0.5 | 5
O=C1NC(Cc2c[nH]c3ccccc23)C(=O)N1Cc1ccc(CN2C(=O)NC(Cc3c[nH]c4ccccc34)C2=O)cc1 (configuration not stated) | -0.9 | 0.0% | -17 | -17 | 0.0 | 2

Carrying on.
SMILES | D2 agonist | PINK1 modulator | Six1-Eya2 inh | CtBP-E1A blk | TRPML1 agonist | D2 PAM
CCCCC[C@H]1CN(Cc2ccccc2)C(=O)[C@@H]1CC(=O)NCc1ccc(OC)cc1 | -1.4 | -1.1% | 8 | 2 | 0.9&-0.6 | -9
Cc1ccccc1-n1c(-c2ccoc2C)n[nH]c1=S | -0.8 | 1.3% | 3 | 7 | 1.2 | 5
O=C(Nc1nc2c(s1)CCCC2)C1COc2ccccc2O1 (configuration not stated) | -6.2 | 1.3% | -11 | -1 | -0.2 | -3
COc1ccc(N2C(=O)CCC(C(=O)Nc3cccc(C)n3)C2c2ccc(OC)c(OC)c2)cc1 (configuration not stated) | -2.9 | -0.2% | -3 | 5 | -0.2 | -21
O=C(O)c1ccc(/C=N/NC(=O)c2ccc(CN3c4cccc5cccc(c45)S3(=O)=O)cc2)cc1 | 3.3 | 1.2% | -1 | -10 | 1.0 | -2
O=C(/C=C/c1ccccc1O)c1ccco1 | -2.2 | -1.7% | -21 | 7 | 7.1 | -10
CC(=O)c1c(NCc2ccccc2)nc(=O)n(-c2ccccc2)c1C | -7.1 | 0.0% | -2 | 4 | -0.1 | -12
O=C(COC(=O)Cn1cnc2ccccc2c1=O)Nc1ccc2c(c1)OCO2 | 0.6 | 0.0% | 7 | -5 | -0.1 | 1
Cc1cc(C(=O)N/N=C\C(Br)=C\c2ccccc2)c(C)o1 | 0.9 | 2.7% | -2 | 10 | 0.7 | -9
CCN1C(=O)c2cccc3c(S(=O)(=O)N4CCC(C)CC4)ccc1c23 | -3.3 | 2.6% | 16 | -2 | 1.1 | 1
COc1ccc(/C=C/C(=O)OCC(=O)Nc2ccc3c(c2)OCO3)cc1 | 0.2 | 7.5% | 10 | 0 | 2.0 | -1
COc1ccc(OC)c(/C=C/C(=O)OCC(=O)Nc2cccc(Oc3ccccc3)c2)c1 | 10 | 3.1% | 22 | 32 | 1.3 | 21
Cc1cc(C)nc(N2CCCC(C(=O)NNC(=O)c3ccncc3)C2)n1 (configuration not stated) | 0.5 | -0.5% | -2 | 11 | -0.5 | -4
C=CCc1cccc2cc(C(=O)O)c(=O)oc12 | -2.4 | -1.4% | 4 | 10 | 0.7 | -9
CCCc1ccc(C(C)NC(=S)NC2CCCCC2)cc1 (configuration not stated) | -3.6 | ? | 0 | -17 | 1.4 | -11
O=C(CN1CCN(c2ncccn2)CC1)N1CCCc2c1c(=O)oc1ccc(O)cc21 | -0.5 | 3.2% | -12 | -9 | -1.0 | -14
S=C(Nc1ccc(Br)cc1)N1CCCC1 | -1.5 | 3.9% | 2 | -6 | 1.2 | -15
